Screening results as filed in PubChem.
MLL AF4-AF9 inh = blocks AF4 peptide binding to human AF9; inhibition, % at 10 µM; P42568; AID 651704; 350,000 compounds, 0.47% hits; AlphaScreen, biotin-AF4 peptide binding to FLAG-AF9;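 active = every replicate reaching a set inhibition limit, whatever the replicate mean, cut at about 25% in these data; inconclusive = mean inhibition reaches that limit but some replicates miss it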;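 also: 0% = plate neutral control median and 100% = total signal loss; the record names both 10 and 1 µM as test concentration; the first replicate is given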
Target sequence (P42568 whole entry, looked up): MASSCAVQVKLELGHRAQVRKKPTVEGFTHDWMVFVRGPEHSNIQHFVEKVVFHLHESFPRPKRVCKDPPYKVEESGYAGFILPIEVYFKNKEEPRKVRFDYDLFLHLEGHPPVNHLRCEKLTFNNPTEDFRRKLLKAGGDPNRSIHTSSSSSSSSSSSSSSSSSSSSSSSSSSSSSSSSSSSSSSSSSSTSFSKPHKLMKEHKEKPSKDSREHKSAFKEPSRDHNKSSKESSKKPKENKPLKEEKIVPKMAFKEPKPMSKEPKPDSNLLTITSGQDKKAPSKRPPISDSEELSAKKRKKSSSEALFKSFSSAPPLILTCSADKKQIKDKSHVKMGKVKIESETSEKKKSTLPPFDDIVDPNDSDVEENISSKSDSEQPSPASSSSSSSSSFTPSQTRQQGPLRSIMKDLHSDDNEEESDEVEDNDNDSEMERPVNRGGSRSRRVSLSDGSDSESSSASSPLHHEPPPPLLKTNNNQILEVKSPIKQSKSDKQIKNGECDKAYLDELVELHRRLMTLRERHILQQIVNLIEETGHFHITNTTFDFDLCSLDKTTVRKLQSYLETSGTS
Beta cell apopt = blocks beta cell apoptosis | protection from apoptosis, % (test concentration not listed) | INS-1E cytokine-induced death, ATP luminescence, 48 h; percent of positive-control rescue, neutral wells zero | AID 435005 | 300,000 compounds, 0.8% hits;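 active = all replicates at 75% or more, or half of them and the mean; inconclusive = half reach 75% but not the mean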;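 also: 0% = cytokine-treated negative control wells and 100% = positive control rescue; higher means more ATP so stronger rescue from cytokine killing; wells of about 40 µL received 100 nL stock; the first replicate is given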
Calb FLC = C. albicans growth modulation with fluconazole. growth inhibition, % (concentration not given with the values). C. albicans CaCi-2 (fluconazole-resistant clinical isolate) + fluconazole, Alamar Blue growth, 48 h. 300,000 compounds, 0.57% hits;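 active = most replicates above 75%; inconclusive = exactly half above 75%; inactive = most below 75%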;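 also: all wells also contain fluconazole at 8 µg/ml as a sub-toxic cotreatment; 0% = median of DMSO wells and 100% = median of geldanamycin control wells; wells of about 8 µL received 7.5 nL stock; the first replicate is given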
RanGTP-Impb inh = disruptors of Ran-importin-beta complex formation – biochemical, FRET, CFP-Ran, YFP-importin-beta, homogeneous, primary screen. cell-free CFP-Ran/YFP-importin-beta FRET ratio. inhibition, % (no concentration beside the values). 300,000 compounds, 1.1% hits. AID 2216;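 active = most replicates above 15%; inconclusive = exactly half above 15%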;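 also: 0% = DMSO wells and 100% = Ran loaded with GDP instead of GTP; wells of about 40 µL received 100 nL stock; the first replicate is given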
T cruzi inh = T. cruzi replication inhibition. T. cruzi beta-gal in NIH3T3, luminescence, 90 h. inhibition, % (test concentration not listed). 300,000 compounds, 1.4% hits;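 active = mean inhibition across valid replicates above about 55%, limit read from the data; inconclusive = mean below that limit but half or more replicates reach it; inactive = mean below it, under half of replicates reach it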;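 also: signal also drops with host cell toxicity which is not excluded here; 0% = plate median of DMSO wells and 100% = zero luminescence signal; higher percent means less beta-gal luminescence so fewer parasites; stock transfer was 50 nL into about 50 µL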
Vif A3G = HIV-1 Vif–A3G interaction blockers – biochemical, TR-FRET, GST-Vif 1-94, biotin-A3G peptide, dose response retest, primary screen (AID 1117319). TR-FRET GST-Vif / biotin-A3G peptide binding; higher % means a stronger effect; test concentration not given here; strong numbers were not always called active. 260,000 compounds, 0.57% hits. inhibition, %, or IC50 in µM where a hit was titrated;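 active = above the screen mean plus three standard deviations and confirmed in dose response; inconclusive = results disagree or hit not tested in dose response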;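 also: Vif residues 1-94 fused to GST binding biotinylated APOBEC3G peptide 110-148; 0% = full assay without inhibitor and 100% = GST in place of GST-Vif; retest series ran down from 100 µM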
LANA-H2B inh = blocks KSHV LANA binding to histone H2A/H2B; Q9QR71; cell-free LANA-H2A/H2B peptide, fluorescence polarization; inhibition, % (concentration not given with the values); 320,000 compounds, 0.6% hits; in the data active = inhibition mostly above about 10%, no sharp cut-off; inactive = mostly below about 6.7%;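 also: stock transfer was 7.5 nL into about 10 µL; 0% = median of vehicle wells and 100% = median of positive control wells; one replicate is shown; the record names a cut of 25% in any replicate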
Bfl-1 A1 inh = inhibitors of the anti-apoptotic protein A1, read as caspase activation. MEF A1-2A-BIM cells, Caspase-Glo 3/7 luminescence, 3 h; percent of clofoctol response, vehicle zero. caspase activation, % (concentration not given with the values). 330,000 compounds, 0.066% hits. AID 2462;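 active = over half of replicate activation scores above 10%, or exactly half above 10 with the replicate mean above 10; inconclusive = replicate mean below 10 yet half the replicates above 10; inactive = over half of replicates below 10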;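 also: wells of about 30 µL received 50 nL stock; many hits fall short of the cut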
Numbers without * were called inactive.

How did COc1cc(/C=N/NC(=O)Cc2csc(N3CCOCC3)n2)cc(OC)c1O do in these assays?
MLL AF4-AF9 inh: -3.0; Beta cell apopt: 4; Calb FLC: -6; RanGTP-Impb inh: 6.5; T cruzi inh: 3; LANA-H2B inh: -1.5; Bfl-1 A1 inh: 0.2

How did O=C(CCOc1ccccc1)Nc1ccc([N+](=O)[O-])cc1 do in these assays?
MLL AF4-AF9 inh: 2.7; Beta cell apopt: 3; Calb FLC: -17; RanGTP-Impb inh: 3.1; T cruzi inh: 3; Vif A3G: 5%; LANA-H2B inh: 15*; Bfl-1 A1 inh: -0.9

How did Cc1ccc(S(=O)(=O)Nc2c(C)nn(C)c2C)c(C)c1 do in these assays?
MLL AF4-AF9 inh: -4.2; Beta cell apopt: 0; Calb FLC: -1; T cruzi inh: -2; Vif A3G: -4%; LANA-H2B inh: 2.5; Bfl-1 A1 inh: 0.0

How did CN(CC(=O)NCCc1ccccn1)S(=O)(=O)c1ccc(Cl)cc1 do in these assays?
MLL AF4-AF9 inh: -8.2; Beta cell apopt: 3; Calb FLC: -11; RanGTP-Impb inh: 0.4; T cruzi inh: -5; Vif A3G: -9%; LANA-H2B inh: -3.8; Bfl-1 A1 inh: 0.4

Results for Cc1cc(C)c2c(N)c(C(=O)NC3CCCC3)sc2n1 ?
MLL AF4-AF9 inh: -2.2; Beta cell apopt: 3; Calb FLC: 29; RanGTP-Impb inh: inconclusive; T cruzi inh: -2; Vif A3G: 9%; LANA-H2B inh: 1.7; Bfl-1 A1 inh: -0.2

Results for COCCn1nnnc1C(c1ccc(OC)cc1)N1CCC(C)CC1 (stereo not given) ?
Beta cell apopt: -2; Calb FLC: -16; RanGTP-Impb inh: 1.2; T cruzi inh: -5; Vif A3G: -1%; LANA-H2B inh: 3.6; Bfl-1 A1 inh: 2.2

Results for Cc1csc(SCC(=O)NCCc2ccc(Cl)cc2)n1 ?
MLL AF4-AF9 inh: -43; Beta cell apopt: 0; Calb FLC: 27; RanGTP-Impb inh: -5.3; T cruzi inh: 5; Vif A3G: -3%; LANA-H2B inh: -0.1; Bfl-1 A1 inh: 0.4

What do the screens show for `COc1ccc(N2CCN(C(=O)COC(=O)c3cnccn3)CC2)cc1`?
MLL AF4-AF9 inh: -0.1; Beta cell apopt: 3; Calb FLC: 4; RanGTP-Impb inh: 0.3; T cruzi inh: 3; Vif A3G: 6%; LANA-H2B inh: -1.5; Bfl-1 A1 inh: 0.3

Results for O=C1NCC2=C1C(c1ccccc1)Nc1ccccc1N2 (stereo not given) ?
MLL AF4-AF9 inh: -3.5; Calb FLC: 6; RanGTP-Impb inh: -0.7; T cruzi inh: -1; Vif A3G: 20%; LANA-H2B inh: 5.5; Bfl-1 A1 inh: -0.1

How did O=C(Nc1ncc(Cc2ccccc2Cl)s1)c1ccc([N+](=O)[O-])cc1 do in these assays?
MLL AF4-AF9 inh: -4.0; Beta cell apopt: 8; Calb FLC: -2; RanGTP-Impb inh: -5.9; T cruzi inh: 13; LANA-H2B inh: 1.3; Bfl-1 A1 inh: -0.3

What do the screens show for `CCn1c(SCc2ccccc2)nnc1C1CCN(S(=O)(=O)c2ccc(OC)cc2)CC1`?
Beta cell apopt: 10; Calb FLC: -11; RanGTP-Impb inh: 8.9; T cruzi inh: 18; Vif A3G: -6%; LANA-H2B inh: 2.0; Bfl-1 A1 inh: 0.9

What do the screens show for `COc1ccc(N(CC(=O)N2CCN(Cc3ccc4c(c3)OCO4)CC2)S(C)(=O)=O)cc1OC`?
Beta cell apopt: 0; Calb FLC: 6; RanGTP-Impb inh: 0.3; T cruzi inh: -5; Vif A3G: 24%; LANA-H2B inh: 4.7; Bfl-1 A1 inh: 0.0

How did CC(=O)c1ccc(OCc2cc(C(=O)NC(C)CCn3cccn3)no2)cc1 (stereo not given) do in these assays?
MLL AF4-AF9 inh: -0.9; Beta cell apopt: 8; Calb FLC: -1; RanGTP-Impb inh: 0.0; T cruzi inh: 12; LANA-H2B inh: 4.8; Bfl-1 A1 inh: -1.6

How did O=C(Nc1ccc(C(=O)O)cc1)/C(=C\c1ccc([N+](=O)[O-])cc1)NC(=O)c1ccc(Br)cc1 do in these assays?
MLL AF4-AF9 inh: 3.6; Beta cell apopt: -3; Calb FLC: -1; RanGTP-Impb inh: 2.0; T cruzi inh: -12; Vif A3G: 1%; LANA-H2B inh: 1.7; Bfl-1 A1 inh: -0.2

Results for O=C(NCCCNC(=O)c1ccccn1)c1cccc(F)c1 ?
MLL AF4-AF9 inh: -6.5; Beta cell apopt: -5; Calb FLC: 5; RanGTP-Impb inh: -1.3; T cruzi inh: -3; LANA-H2B inh: 9.1; Bfl-1 A1 inh: -0.3

Results for CC(C)Oc1ccc(C(CC(=O)N(C)CCC#N)c2ccc(F)cc2)cc1 (stereo not given) ?
Beta cell apopt: -7; Calb FLC: inconclusive; RanGTP-Impb inh: -4.4; T cruzi inh: 3; Vif A3G: 2%; LANA-H2B inh: 2.0; Bfl-1 A1 inh: -0.2

Results for CCn1nnnc1SCC(=O)NCc1cccs1 ?
Beta cell apopt: 0; Calb FLC: -8; RanGTP-Impb inh: 2.2; T cruzi inh: -8; Vif A3G: 29%; LANA-H2B inh: -1.8; Bfl-1 A1 inh: 1.9

Results for CCCn1c(N)c(N(CCOC)C(=O)CSCC(=O)Nc2ccc(OC)cc2)c(=O)[nH]c1=O ?
MLL AF4-AF9 inh: -4.9; Beta cell apopt: -13; Calb FLC: 3; RanGTP-Impb inh: 4.4; T cruzi inh: -6; Vif A3G: -7%; LANA-H2B inh: 1.2; Bfl-1 A1 inh: -0.1

Results for CCOC(=O)c1ccc(NC(=O)N2CCc3ccccc32)cc1 ?
Beta cell apopt: 6; Calb FLC: -24; RanGTP-Impb inh: 0.0; T cruzi inh: 4; Vif A3G: 4%; LANA-H2B inh: 0.2; Bfl-1 A1 inh: -6.6

Results for CCS(=O)(=O)c1ncc(Cl)c(C(=O)Nc2ccc(S(=O)(=O)N3CCC(C)CC3)cc2)n1 ?
MLL AF4-AF9 inh: 1.2; Beta cell apopt: 108*; Calb FLC: 1; RanGTP-Impb inh: 2.5; T cruzi inh: 62*; LANA-H2B inh: 3.6; Bfl-1 A1 inh: 42*

What do the screens show for `CCOC(=O)c1cnc2nc(C)[nH]n2c1=O`?
Beta cell apopt: -5; Calb FLC: -9; RanGTP-Impb inh: -2.7; T cruzi inh: 6; Vif A3G: 0%; Bfl-1 A1 inh: -0.1

How did O=C1C(=Cc2ccco2)C(=O)c2ccccc21 do in these assays?
Beta cell apopt: 3; Calb FLC: -3; RanGTP-Impb inh: 0.2; T cruzi inh: -2; Vif A3G: -4%; LANA-H2B inh: 0.2; Bfl-1 A1 inh: 0.2

What do the screens show for `CN(CCO)c1ncnc2nc[nH]c12`?
MLL AF4-AF9 inh: -2.8; Beta cell apopt: -2; Calb FLC: 0; RanGTP-Impb inh: -0.7; T cruzi inh: 7; Vif A3G: 11%; LANA-H2B inh: -0.9; Bfl-1 A1 inh: 0.5

How did CCN(c1ccccc1)S(=O)(=O)c1ccc(OC)c(NC(=O)COc2ccc(C(C)=O)cc2)c1 do in these assays?
MLL AF4-AF9 inh: -1.5; Beta cell apopt: 0; Calb FLC: -10; RanGTP-Impb inh: 2.3; T cruzi inh: 9; Vif A3G: 4%; Bfl-1 A1 inh: 0.0

How did C/C(=N\NC(=O)c1cc(-c2ccco2)nc2ccccc12)c1cccnc1 do in these assays?
MLL AF4-AF9 inh: -7.9; Beta cell apopt: -1; Calb FLC: -13; RanGTP-Impb inh: -0.3; T cruzi inh: -6; Vif A3G: 9%; LANA-H2B inh: 4.4; Bfl-1 A1 inh: -0.4

How did COc1ccc(OC)c(C(=O)CN2C(=O)C(=O)N(C3CCCC3)C2=O)c1 do in these assays?
MLL AF4-AF9 inh: -2.3; Beta cell apopt: -16; Vif A3G: -29%; LANA-H2B inh: -0.7; Bfl-1 A1 inh: 1.1

How did COC(=O)c1cnn(-c2nc3c(C)cccc3s2)c1C do in these assays?
Beta cell apopt: 1; Calb FLC: -16; RanGTP-Impb inh: -1.7; T cruzi inh: 4; Vif A3G: -1%; LANA-H2B inh: -1.3; Bfl-1 A1 inh: -0.6

What do the screens show for `CCc1c(C(=O)NNC(=S)NCc2ccccc2)csc1C`?
Beta cell apopt: 2; Calb FLC: -2; RanGTP-Impb inh: 6.1; T cruzi inh: -17; Vif A3G: -7%; LANA-H2B inh: 0.6; Bfl-1 A1 inh: 0.4

How did NC(=O)N/N=C/c1ccccc1OCc1cccc2ccccc12 do in these assays?
MLL AF4-AF9 inh: -1.7; Beta cell apopt: 2; Calb FLC: 53; RanGTP-Impb inh: -0.7; T cruzi inh: 2; LANA-H2B inh: -5.6; Bfl-1 A1 inh: -0.3

What do the screens show for `CCC(C)(C)C1CCC2(CC1)NC(=O)N(CC(=O)N(C)Cc1ccc3c(c1)OCCO3)C2=O` (stereo not given)?
MLL AF4-AF9 inh: -19; Beta cell apopt: -1; Vif A3G: 1%; LANA-H2B inh: -1.6; Bfl-1 A1 inh: -0.3

How did ONC(=Nc1ccccc1Cl)c1c(F)cccc1F do in these assays?
MLL AF4-AF9 inh: 4.2; Beta cell apopt: 0; Calb FLC: -5; RanGTP-Impb inh: 5.9; T cruzi inh: -2; LANA-H2B inh: -1.0; Bfl-1 A1 inh: 0.6

How did O=C(N/N=C/c1ccc(OC(F)F)cc1)c1cc[n+]([O-])cc1 do in these assays?
MLL AF4-AF9 inh: 0.0; Beta cell apopt: -2; Calb FLC: -2; RanGTP-Impb inh: 3.7; T cruzi inh: -28; Vif A3G: -2%; LANA-H2B inh: 0.7; Bfl-1 A1 inh: 1.0

What do the screens show for `O=C(Cn1ccc([N+](=O)[O-])n1)NCCc1c[nH]c2ccccc12`?
MLL AF4-AF9 inh: -2.6; Beta cell apopt: -8; Calb FLC: -5; RanGTP-Impb inh: 2.1; T cruzi inh: -9; Vif A3G: 0%; LANA-H2B inh: 0.9; Bfl-1 A1 inh: 1.2

Results for CC(=O)Nc1ccc(S(=O)(=O)N2CCN(c3ccc(C)c(Cl)c3)CC2)cc1 ?
MLL AF4-AF9 inh: -1.1; Beta cell apopt: -1; Calb FLC: -4; RanGTP-Impb inh: 7.6; T cruzi inh: -1; Vif A3G: 22%; LANA-H2B inh: -3.7; Bfl-1 A1 inh: 0.6

Results for CC(C)CN1C(=O)c2ccc(C(=O)NCc3ccccn3)cc2C1=O ?
MLL AF4-AF9 inh: 1.1; Beta cell apopt: -6; Calb FLC: 3; RanGTP-Impb inh: 3.6; T cruzi inh: 3; LANA-H2B inh: 1.7; Bfl-1 A1 inh: -0.4

What do the screens show for `CCC(=O)Nc1ccc(C(=O)NNC(=O)c2cc(OC)c(OC)c(OC)c2)cc1`?
MLL AF4-AF9 inh: -4.2; Beta cell apopt: 2; Calb FLC: -11; RanGTP-Impb inh: -8.6; T cruzi inh: -8; LANA-H2B inh: 0.7; Bfl-1 A1 inh: -0.6

Results for CC(=O)c1ccc(NC2CC(O)C(O)CO2)cc1 (stereo not given) ?
Calb FLC: 2; RanGTP-Impb inh: -2.7; T cruzi inh: -14; Vif A3G: 14%; LANA-H2B inh: 4.5; Bfl-1 A1 inh: 0.3
